Anaer choline gr: inhibitors of anaerobic choline-dependent gram-negative bacterial growth. calls only. Gram-negative bacterium anaerobic choline minimal medium, absorbance growth; hits give low values; many inactives read as strong as hits in the columns shown. AID 1963822. 55,000 compounds, 0.2% hits;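 active = growth z-score on choline under -2 at 7 or 20 h with little or no fall on glycerol, limits in tiers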;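 also: stock transfer was 300 nL into about 50 µL; the organism is E. coli; final concentration not given here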
Anaer choline gr early: also measured in Anaer choline gr; calls as there; z-score; measured here: choline growth z-score, timepoint 1;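 score of optical density at 7 h as mean of two plates; lower means less growth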
The depositor's hits bear a star; i = inactive; & = joins results of further samples. The list is partial. The share of hits here may be higher or lower than overall.

Anaer choline gr | Anaer choline gr early | Compound
i | 0.18 | O=C(O)c1c2ccccc2cc2ccccc12
i | 0.08 | CN(Cc1nc2ccccc2n1C)S(=O)(=O)c1ccc(Cl)cc1
i | -0.41 | CC(C)Cn1c(=O)c2ccccc2n2c(=O)n(CC(=O)Nc3cc(F)ccc3F)nc12
i | -1.6 | CC1CCN(C(=O)C2CCC(=O)N2S(=O)(=O)c2ccc(F)cc2)CC1 (stereo not given)
i | 0.03 | COc1cc(OC)c(NC(=O)N2CCN(c3ccc(=O)n(-c4ccc(F)cc4)n3)CC2)cc1Cl
i | -0.07 | COCCCNC(=O)Cn1ccc2c(SCc3ccccc3)nccc21
i | -0.27 | CCc1ccc(S(=O)(=O)N(C(=O)c2ccncc2)c2ccc3oc(C)c(C(=O)OC)c3c2)cc1
i | -0.35 | CCCS(=O)(=O)N1CCCC(c2nc(CNC(C)=O)cs2)C1 (stereo not given)
i | -1.5 | Cc1sc(-c2cc(C(F)(F)F)on2)cc1S(=O)(=O)N1CCCCCC1
i | 0.42 | COc1ccc(C2CC(=O)N(c3cccc(F)c3)C(=O)C2)cc1OC
i | -0.32 | O=S1(=O)N=C(Nc2ccccc2F)c2ccccc21
i | 1.2 | O=c1c2oc3ccccc3c2ncn1Cc1cccc(F)c1

Next part
Anaer choline gr | Anaer choline gr early | Compound
i | 0.03 | COc1ccc(N2CC(C(=O)Nc3cccc(-c4nc(-c5ccccc5)no4)c3)CC2=O)cc1 (stereo not given)
i | 0.08 | O=C(c1ccccc1Br)N1CCN(Cc2cc(=O)n3nc(-c4ccccc4F)sc3n2)CC1
i | 0.99 | C=CCn1c(=O)c(C(=O)Nc2cccc(OC)c2)c(O)c2ccccc21
i | 0.11 | O=C(O)c1ccccc1
i | 0.47 | Cc1ccc(Nc2nc3ccccc3n3cnnc23)cc1Cl
i | -1.8 | CCOC(=O)c1cc(C(=O)Nc2ccc(OC)cc2OC)c(=O)[nH]c1C
i | 0.52 | O=C(CCc1nc(-c2cc3ccccc3[nH]c2=O)no1)Nc1ccccc1F
i | -0.21 | CCn1nccc1C1CCCN1C(=O)Nc1ccccc1Br (stereo not given)
i | 0.14 | CCN(CC)CCn1c(C)c(C)c2c1ncn1nc(-c3ccc(C(C)(C)C)cc3)nc21
i | -1.1 | Cc1ccc(Nc2nnc(C)c(=O)[nH]2)c(C)c1
i | -0.41 | Cc1ccccc1-c1noc2ncnc(N3CCCC3)c12
i | -0.87 | Cc1cc(-c2csc(S(=O)(=O)NCc3ccccc3)c2)on1

(listing goes on)
Anaer choline gr | Anaer choline gr early | Compound
i | -0.22 | CCn1nccc1C1CCCN1C(=O)Nc1ccc(Cl)cc1 (stereo not given)
i | -0.25 | CCOc1ccc(N2C(=O)CC(N3CCN(c4ccccc4OC)CC3)C2=O)cc1 (stereo not given)
i | 0.03 | COc1cc2c(cc1OC)-c1cc3nc4ccccc4nc3n1C(C)(C)C2
i | 0.92 | O=C(COc1cccc(-c2nc(-c3ccccc3)no2)c1)Nc1ccccn1
i | -0.56 | CCOC(=O)c1cn[nH]c1S(=O)(=O)Nc1cc(C)cc(C)c1
i | -0.45 | Cc1ccc(N(Cc2nc3nc(C)cc(=O)n3[nH]2)C(=O)CC(C)C)cc1
i | 0.96 | O=C(CSc1nc2ncccc2n2cccc12)NCc1cccc(Cl)c1
i | -0.92 | COc1ccc(CCC(=O)Nc2ccc3c(c2)CCCN3S(=O)(=O)c2ccccc2)cc1
i | -0.31 | O=S(=O)(NCc1ccc(Br)cc1)c1ccc2c(c1)-c1oncc1CO2
i | 0.2 | O=C(NCCC1=CCCCC1)c1ccc(Cn2c(=O)c(=O)[nH]c3cccnc32)cc1
i | 0.7 | Cc1ccc(-c2ccc3c(n2)sc2c(=O)[nH]cnc23)cc1C
i | 0.33 | CN(C)C(=O)c1cc2c(s1)CCC(C(=O)N(C)C)C2 (stereo not given)

(more compounds)
Anaer choline gr | Anaer choline gr early | Compound
i | -0.75 | CCN1CCN(c2cc(C(=O)O)c3cc(NS(=O)(=O)c4ccc(CC(C)C)cc4)ccc3n2)CC1
i | 0.9 | COc1ccccc1NC(=O)c1c(C)oc2ncnc(N3CCCCC3)c12
i | 1.1 | Cc1ccc(CSc2nnc3c(=O)n(-c4ccc(C(C)C)cc4)ccn23)cc1
i | -0.28 | CCOC(=O)c1[nH]c(C)c(CCC(=O)Nc2cccnc2)c1C
i | 0.28 | Cc1cccc(C(=O)O)c1O
i | 1.3 | O=C(CN1CCN(Cc2cccc(Cl)c2)C1=O)N1CCC(Cc2ccccc2)CC1
i | -0.44 | CCOc1ccc(N2C(=O)c3ccccc3C2C(=O)NCCC(C)C)cc1 (stereo not given)
i | -0.49 | CCOc1ccccc1CNC(=O)c1nc(N2CCOCC2)c2ccccc2n1
i | -0.36 | CCC(=O)NC1CCc2cccc(OC)c2C1 (stereo not given)
i | -3&-1.5&-1&-0.8 | C[N+](C)(C)CCCCCCCCCC[N+](C)(C)C
i | -1.4 | Cc1ccc(S(=O)(=O)c2nccn3nc(-c4ccc(Cl)cc4)cc23)cc1
i | 1.3 | COc1ccc(-c2cc(C(=O)Nc3ccccc3F)nn2C2CCS(=O)(=O)C2)cc1 (stereo not given)

Later entries:
Anaer choline gr | Anaer choline gr early | Compound
i | -0.13 | O=S(=O)(c1ccccc1)N1CCN(c2ncnc3c2nnn3-c2ccc(F)cc2)CC1
i | 0.94 | Cc1[nH]c2ccccc2c1C(=O)c1sc(Nc2ccccc2)nc1N
i | -0.28 | Clc1ccccc1Oc1nc2ccccc2nc1N1CCOCC1
i | 0.11 | CCn1nccc1C1CCCN1S(=O)(=O)c1ccc(C)cc1 (stereo not given)
i | -0.75 | Cc1cc(N2CCN(c3ccc(F)cc3)CC2)n2cnnc2n1
i | -2.4 | CCCCN(CC)C(=O)c1cc2cccnc2n(Cc2ccccc2)c1=O
i | 0.11 | O=C(CSc1nnc2c(=O)n(-c3ccccc3)ccn12)c1ccc(Br)cc1
i | 0.46 | CCC(=O)Nc1ccc(-c2cc(C(=O)Nc3ccccc3Cl)c3ccccc3n2)cc1
i | -0.42 | Cc1ccc(Cn2c(CNC(=O)C(C)Cn3ccnc3C)nc3cccnc32)cc1 (stereo not given)
i | 0.05 | CC(C)NC(=O)c1ncn2c1C(=O)N(C1CC1)C(C)(C(=O)NC1CCCC1)C2 (stereo not given)
i | 0.21 | CCn1c(=O)c(CCC(=O)Nc2cccc(CN3CCCC3)c2)nc2c(C)nn(-c3ccccc3)c21
i | -1.5 | CC(=O)NC(C)c1nc(-c2cccc(C)c2)no1 (stereo not given)

Other compounds follow:
Anaer choline gr | Anaer choline gr early | Compound
i | -2.5 | CCCCCN=C(N)N/N=C/c1c[nH]c2ccc(OC)cc12
i | 0.47 | CCOc1nc2c(c(C)nn2-c2ccc(C)cc2)c(C)c1CCC(=O)NC1CCCC1
i | 0.68 | Cc1ccc(Nc2n[nH]nc2C(=O)Nc2ccc(C(C)C)cc2)cc1
i | -0.65 | CC(C)NC(=O)c1cccc(-n2cnnc2)n1
i | 0.09 | COc1ccc(Nc2ncnc3sc(C)c(S(=O)(=O)N4CCCCC4)c23)cc1OC
i | 1.1 | COc1ccccc1NC(=O)Nc1ccccc1SCc1cc(=O)n2cc(Cl)ccc2n1
i | -1.6 | CC(Sc1nnc(-c2cccnc2)o1)C(=O)N1CCc2ccccc21 (stereo not given)
i | 0.11 | Cn1cc(-c2nc(-c3ccc(Br)cc3)no2)c(=O)c2cc(F)c(N3CCCCC3)cc21
i | -0.27 | COc1ccc(Cl)cc1NC(=O)Cn1c(=O)n2nc(-c3ccccc3)nc2c2ccccc21
i | 2 | COc1ccc(N2CCN(C(c3ccccc3)c3nnc(-c4ccc(Cl)cc4)o3)CC2)cc1 (stereo not given)
i | -0.66 | Cc1cc(C)c(S(=O)(=O)Nc2cccc(C(=O)N3CCCC3C(=O)NCC3CCCO3)c2)c(C)c1 (stereo not given)
i | -1.9 | COc1ccc2[nH]c(C(=O)NCc3ccccc3F)c(N3CCCC3=O)c2c1

Continuation:
Anaer choline gr | Anaer choline gr early | Compound
i | -0.5 | CC(C)NC(=O)C1CC(=O)N(c2ccc3c(c2)CCN3C(=O)C2CC2)C1 (stereo not given)
i | 0.42 | CCc1ccccc1N1CNc2c(sc3nc(C)cc(COC)c23)C1=O
i | 0.77 | Cn1c(=O)n(C)c2cc(S(=O)(=O)N3CCOCC3)c(Cl)cc21
i | -0.34 | O=c1n(Cc2ccccc2)nc2c(S(=O)(=O)N3CCOCC3)cccn12
i | -0.01 | Nc1cc(C(=O)N2CCCCC2)ccc1O
i | -0.64 | CCCN1CCN(C(=O)CN(C)S(=O)(=O)c2cc3c(cc2Cl)NC(=O)CO3)CC1
i | -0.74 | CC(C)c1ccc(S(=O)(=O)c2cn(CC(=O)Nc3ccc(Cl)cc3)c3ccccc3c2=O)cc1
i | -0.39 | COc1ccccc1-c1cc(C(=O)N2CCCC2c2cc(C)no2)no1 (stereo not given)
i | 0.7 | COc1ccc(CNC(=O)C2CCN(c3ccc4cc(S(=O)(=O)N5CCCCC5)ccc4n3)CC2)cc1
i | 0.23 | CC(C)S(=O)(=O)N1CCCN(C(=O)C2CCC2)CC1
i | 0.05 | CCOC(=O)c1[nH]c(C)c(CN(Cc2ccc(OC)cc2)C(=O)Nc2ccc3c(c2)OCO3)c1C
i | 0.62 | O=S(=O)(c1cc(-c2noc(C3CCC3)n2)cs1)N1CCN(c2ccccc2F)CC1

Next section:
Anaer choline gr | Anaer choline gr early | Compound
i | 1.3 | COc1ccc(NC(=O)c2nc3ccccc3n(C)c2=O)cc1
i | 0.57 | COc1cccc(N2CCCn3c2nc2c3c(=O)n(Cc3c(F)cccc3Cl)c(=O)n2C)c1
i | -1.9 | CC1=C(C(=O)OC2CCCCC2)C(c2sccc2C)n2nnnc2N1 (stereo not given)
i | 0.19 | CC(C)(C)NC(=O)C1CN(Cc2cccnc2)CCN1CC(O)CC(Cc1ccccc1)C(=O)NC1c2ccccc2CC1O (stereo not given)
i | -0.16 | COc1ccccc1NC(=O)CSc1nc2c(sc3ccccc32)c(=O)n1CCN(C)C
i | -0.31 | N#CC1=CN(c2ccc(F)cc2Cl)c2ccc(F)cc2S1(=O)=O
i | 1 | Cc1cccc(N2CCN(c3ncc(S(=O)(=O)c4ccc(C)c(C)c4)c(N)n3)CC2)c1
i | 1 | Cc1ccccc1-c1nn2c(=O)cc(N3CCN(C(=O)Nc4ccccc4)CC3)nc2s1
i | 0.1 | CCS(=O)(=O)N1CCN(c2cc(N3CCCCC3)nc(C)n2)CC1
i | 0.17 | COc1ccc(NC(=O)NCCc2nc(-c3ccc(F)cc3)n[nH]2)c(OC)c1
i | -0.31 | CCc1cc2c3c([nH]c2cc1S(=O)(=O)NCCN1CCc2ccccc2C1)CC(C)(C)CC3=O
i | 0.44 | Cc1ccc(C2CC(c3ccc(NS(C)(=O)=O)cc3)=NN2C(=O)CCC(=O)O)cc1 (stereo not given)

Other results.
Anaer choline gr | Anaer choline gr early | Compound
i | 2.5 | CCOC(=O)c1c(NC(=O)c2ccccc2)oc2cccnc12
i | 0.46 | O=C(NC1CCS(=O)(=O)C1)c1cc2c(s1)CN(C1CC1)C2 (stereo not given)
i | -0.41 | O=C(O)c1cc(-c2ccccc2)nc2n[nH]c(-c3ccc(F)cc3)c12
i | -0.41 | O=S(=O)(c1cccc(F)c1)N1CCC2(CC1)Nc1cc(F)ccc1-n1cccc12
i | 0.85 | COc1ccc(-c2csc(NC(=O)CSc3nnc(C)c(=O)[nH]3)n2)cc1
i | 0.04 | NC(=O)C(c1ccccc1)(c1ccccc1)[C@@H]1CCN(CCc2ccc3c(c2)CCO3)C1
i | 0.13 | COc1ccccc1CNC(=O)C1(C)COc2c(oc3ccccc23)C(=O)N1CCCc1ccccc1 (stereo not given)
i | -0.31 | Cc1cccc(C2CC(=O)Nc3c2c(C)nn3-c2ccc3nnc(C)n3n2)c1 (stereo not given)
i | 1.1 | Cc1[nH]c(C)c(S(=O)(=O)N2CCCC(C)C2)c1-c1nnc(C2CCC2)o1 (stereo not given)
i | 0.46 | C=CCOC(=O)C1=C(C)NC(C)=C(C(=O)OCC=C)C1c1ccc(C)cc1
i | 1 | Cc1nnc2c(SCc3ccccc3Cl)nc3ccccc3n12
i | -2.4 | CCCCNC(=O)CSc1nnc(-c2cccnc2)o1

(next part)
Anaer choline gr | Anaer choline gr early | Compound
i | 0.13 | Cc1ccc(-c2nc3scc(CCNC(=O)COc4ccccc4)n3n2)cc1
i | 3.2 | C=Cc1ccc(Cn2nc3n(CCC(C)C)c(=O)c4ccc(C(=O)NC(C)CC)cc4n3c2=O)cc1 (stereo not given)
i | 0.79 | COc1cc(CN2CCCC2c2cc(C)on2)ccc1OC(C)C (stereo not given)
i | -1.3 | CC(c1ccccc1)N1CCn2c(nc3ccccc32)C1 (stereo not given)
i | 0.68 | COc1cccc(Nc2nc(C)c3ncn(-c4cccc(OC)c4)c3n2)c1

Compound activity deposited in PubChem by ICCB-Longwood Screening Facility, Harvard Medical School.
